Sfp PPTase inh = qHTS Assay for Inhibitors of Bacillus subtilis Sfp phosphopantetheinyl transferase (PPTase) | Potency, µM, without a hit: max response, negative = inhibition, most hits filed as inhibitors | Biochemical Sfp PPTase activity, qHTS | 3.5% of 310,000 active | AID 1490, 2009; active = well fitted inhibition curve with a large enough effect; inconclusive = small, poorly fitted or top-dose-only effect, or another doubt; inactive = no such curve, though single readings can be large or run the other way;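 note: the enzyme is Sfp with the accession as filed and its product quenches rhodamine fluorescence; potency is the fitted concentration of half-maximal effect; 0% = enzyme reaction without inhibitor and -100% = no enzyme wells; top concentration of the series not given in the record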
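Buffer: 50 mM Hepes-Na pH 7.6, 10 mM MgCl2, 0.01% Nonidet P-40, 0.01% BSA. Enzyme 15 nM, pre-exposed to compound 15 min; substrates then added and fluorescence change tracked over 30 min.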
D2 ag = Beta-Arrestin HTS for Positive Allosteric Modulators of the Human D2 Dopamine Receptor: Agonists; D(2) dopamine receptor (Homo sapiens), P14416; DiscoveRx PathHunter D2 beta-arrestin, luminescence, 90 min; 100% = 57 uM dopamine signal; activation, % (test concentration not listed); 0.084% of 360,000 active; in the data active = activation above about 40%; inconclusive = about 15% to 40%; inactive = below about 15%; note: compound concentration not given in the record; the text of the record calls up to 30% inactive
Target sequence (P14416 whole entry, looked up): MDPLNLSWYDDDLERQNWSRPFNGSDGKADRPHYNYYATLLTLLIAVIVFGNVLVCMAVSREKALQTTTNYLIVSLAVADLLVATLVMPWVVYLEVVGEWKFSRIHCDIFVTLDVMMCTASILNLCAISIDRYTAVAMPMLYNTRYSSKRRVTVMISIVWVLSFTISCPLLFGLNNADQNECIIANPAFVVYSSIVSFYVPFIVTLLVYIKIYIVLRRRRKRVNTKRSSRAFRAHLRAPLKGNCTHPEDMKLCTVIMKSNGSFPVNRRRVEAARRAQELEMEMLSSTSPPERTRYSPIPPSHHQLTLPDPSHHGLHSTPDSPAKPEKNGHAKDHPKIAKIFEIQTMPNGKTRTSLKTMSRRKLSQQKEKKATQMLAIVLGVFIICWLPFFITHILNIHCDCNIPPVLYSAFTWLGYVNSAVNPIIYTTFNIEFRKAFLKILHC
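DiscoveRx PathHunter D2 beta-arrestin cells (2,100/well) attached overnight, then compound-stimulated 90 min at 37 C in HBSS/10 mM HEPES/0.1% Tween-20 buffer; beta-galactosidase complementation read by luminescence after 1 h at ambient temperature. Dopamine 57 uM final (EC100) as control.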
PINK1 modulator = A Quantitative High throughput Screen to Identify Chemical Modulators of PINK1 Expression. PINK1 immunofluorescence, high-content cytometry, 24 h. Potency, µM (series often up to 76.6 µM), inactives show top-dose activation (PINK1 increase), most hits filed as activators. 0.2% of 410,000 active. AID 624263, 2012; active = well fitted activation curve with a large enough effect; inconclusive = small, poorly fitted or top-dose-only effect; inactive = flat fitted curve, though single readings scatter; cell line not stated here;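 note: potency is the fitted concentration of half-maximal effect; % of control where 0% means no effect; nearly all actives have a fitted effect of over 65% in size; a mitochondrial uncoupler was the plate control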
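Measures PINK1 amount and localization on or inside mitochondria by immunofluorescence. Stable cells get compounds at 5 concentrations for 24 hours before fixation and staining; CCCP controls included.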
CtBP-E1A blk = qHTS Assay for Inhibitors of the CtBP/E1A Interaction; AlphaScreen GST-E1A/His-CtBP binding, 1536-well; hits give low values; control for the full effect not named in the record; activity change, % (concentration not given with the values); 0.49% of 340,000 active; AID 651724, 2012; in the data active means activity change below about -65%; inconclusive means about -30% to -65%; inactive means above about -30%; note: % is set by controls: 0 for no effect and ±100 for the full control effect
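AlphaScreen with 125 nM GST-E1A and 125 nM His-CtBP (5X stocks) in Tris pH 8.0, 300 mM NaCl, BSA, Tween 20, TCEP. Compounds preincubated 2 h at 37 deg C, then glutathione donor/nickel acceptor beads added for 1 h at 37 deg C in dark.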
Six1-Eya2 inh = qHTS Assay for Inhibitors of the Six1/Eya2 Interaction; Homeobox protein SIX1 (Homo sapiens) + Protein phosphatase EYA2 (Homo sapiens), …; AlphaScreen GST-Six1/His-Eya2 binding, biochemical; hits give low values; control for the full effect not named in the record; activity change, % (concentration not given with the values); 0.56% of 360,000 active; AID 651725, 2012; in the data active = activity change below about -65%; inconclusive = about -30% to -65%; inactive = above about -30%; note: % is set by controls: 0 for no effect and ±100 for the full control effect
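GST-Six1 + His-Eya2 (5X stock: 250/500 nM); Tris pH 8.0, 300 mM NaCl, 0.05% BSA, 0.02% Tween 20; GSH donor/Ni acceptor beads; 1 h 37 °C dark; AlphaScreen readout.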
D2 potentiator = Beta-Arrestin HTS for Positive Allosteric Modulators of the Human D2 Dopamine Receptor: Potentiators; D(2) dopamine receptor (Homo sapiens), P14416; DiscoveRx D2 beta-arrestin cells, luminescence, 90 min; 100% = 57 uM dopamine signal; potentiation, % (test concentration not listed); 0.23% of 360,000 active; AID 624464, 2012; active = potentiation of 50% or more; inconclusive = 30% to 50%; inactive = 30% or less;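 note: compound concentration not given in the record; tested on top of an EC20 dose of dopamine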
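PathHunter D2 cells, attached overnight at 37 deg C, received compound in DMSO plus dopamine at EC20 (50 nM final) for 90 min at 37 deg C. Beta-arrestin recruitment was read as luminescence after 1 h with detection reagent at ambient temperature.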
TRPV1 potentiator = HTS Assay for Compounds that Act as Potentiators of the Vanilloid Receptor 1. potentiation, % at 8.33 µM. 0.02% of 320,000 active. AID 540277, 2011. TRPV1-expressing cells, Fluo-8 calcium influx, capsaicin EC20 potentiation; host cell line not named in the record; control for the full effect not named in the record. Transient receptor potential cation channel subfamily V member 1 (Homo sapiens), Q8NER1; active means potentiation above 80%; inconclusive means 30% to 80%; inactive means below 30%; note: 0% is about no effect
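Cells expressing TRPV1 were dye-loaded with Fluo-8 and read kinetically: 10 s baseline, 3 min after compound (agonist portion), then 2 min after EC20 capsaicin (allosteric enhancer portion). Calcium-bound dye fluorescence at 480/520 nm.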
* marks the source's active call; other numbers are inactive results; ? = inconclusive; nt = not tested or not shown; & = joins results of further samples; [ ] = dose if it differs, or a comment.

mol	Six1-Eya2 inh	PINK1 modulator	TRPV1 potentiator	CtBP-E1A blk	D2 ag	D2 potentiator	Sfp PPTase inh
CN1CCCC(OC(=O)COc2ccccc2)C1 (stereo unspecified)	8	1.6%	17	-1	-1.0	1	5%
CN(C)S(=O)(=O)Oc1ccccc1C(=O)Nc1ccccc1Cl	-2	1.0%	13	0	-1.4	-5	19%
COc1cccc(CSCC(=O)NCCc2ccccc2)c1OC	3	2.2%	-11	-2	3.8	-1	7%
Cc1cc2nc(SCCN3CCOCC3)[nH]c2cc1C	11	-0.7%	?	-3	-2.2	-12	6%
C=CCSc1nnc(NC(=O)Cn2cnc3c2c(=O)n(C)c(=O)n3C)s1	-7	4.3%	-8	11	-1.7	-3	12%
Cc1ccc(C(=O)NCCNc2nc3cc(C)c(C)cc3cc2C)cc1	4	1.0%	-3	4	-1.5	-7	-1%
O=C(COC(=O)c1ccc([N+](=O)[O-])s1)NC(c1ccccc1)c1ccccc1	-8	7.7%	-1	-2	10.0	24	-8%
O=C(Nc1ccc(Nc2ccccc2)cc1)C1CC1	-8	-0.5%	-12	-6	-2.6	16	-12%
O=C(O)c1cccc(S(=O)(=O)Nc2cccc(S(=O)(=O)Nc3ccc(Br)cc3)c2)c1	2	4.9%	9	-3	2.0	-17	nt
CN(Cc1c(C(=O)N/N=C/c2cccc(F)c2)nnn1-c1nonc1N)C1CCCCC1	3	7.1%	-2	6	0.6	-4	15%
CCCN(CCC)Cc1c(C(=O)N/N=C/c2ccc(C)o2)nnn1-c1nonc1N	-2	5.6%	-11	-6	0.1	-9	13%
CC1=C([N+](=O)[O-])C(c2ccc(O)c(O)c2)NC(=O)N1 (stereo unspecified)	0	-0.3%	27	7	-5.2	-4	?
CCOC(=O)CC(=O)CSc1n[nH]c(=O)[nH]c1=O	4	-0.2%	-8	-2	-0.2	-8	1%
Cc1ccc(S(=O)(=O)Nc2ccc(Cl)cc2C(=O)c2ccccc2)cc1	-13	?	-11	3	2.6	-26	-3%
COCCn1c(SC(C)C(=O)NC2CCCCC2C)nc2ccccc2c1=O (stereo unspecified)	4	-0.5%	-9	0	-3.3	-12	nt
O=C1OC(Cc2ccccn2)C(O)=C1C1=NCCCN1 (stereo unspecified)	2	-1.6%	27	0	-3.0	-10	2%
O=C(CCN1CCOCC1)NCC1COc2ccccc2O1 (stereo unspecified)	-2	0.6%	-16	8	-0.2	-2	15%
O=C(/C(Cl)=C/Nc1ccc(Br)cn1)C(F)(F)F	-24	2.9%	-9	nt	-3.2	-14	-3%
CCCC(=O)Nc1c(C)nn(C(=O)CCC)c1C	7	1.4%	2	2	-1.9	0	-3%
CN(C)CCNC(=S)NC1CCCCC1	-4	1.9%	4	nt	-3.6	11	-2%
Cc1nc(OCc2c(C)noc2C)c2ccccc2n1	-2	-1.8%	-9	0	-2.2	-12	2%
CC(=O)c1cccc(NC(=O)Nc2ccccc2)c1	4	-1.2%	-5	-2	3.9	-3	3%
CCN(CC)S(=O)(=O)c1cc(C(=O)OCC(=O)c2ccc3c(c2)NC(=O)CO3)ccc1Cl	-3	nt	5	-16	-3.2	-10	?
CCOC(=O)CSc1cc(C)nc(NC(C)=O)n1	-1	-1.7%	-2	8	-0.3	10	4%
Cc1ccc2c(C)c(C(=O)Nc3ccc(S(=O)(=O)Nc4onc(C)c4C)cc3)oc2c1	-28	2.5%	-18	?	-3.2	-5	13%
Cn1c(=O)n(CCCOc2ccc(Br)cc2)c2ccccc21	19	-0.8%	-28	8	-1.8	-27	-19%
CCc1ccc(C(=O)CN2C(=O)NC3(CCOc4ccccc43)C2=O)s1 (stereo unspecified)	-4	0.4%	-2	-2	1.9	-1	nt
O=C(N1CCN(c2ccccc2)CC1)C12CC3CC(CC(C3)C1)C2	0	-0.3%	-29	-2	7.1	-2	5%
C/C(=N\NC(=O)c1cc(C)nc2ccc(C)cc12)c1ccncc1	3	0.5%	-2	1	-0.2	-4	14%
COC(=O)c1nn(-c2ccccc2)c(=O)cc1O	-1	-1.0%	-13	0	-1.0	-2	2%
CC(=O)c1ccc(NC(=O)C[n+]2ccccc2)cc1	9	-0.6%	5	nt	6.2	-4	3%
CN(C1CCCCC1)S(=O)(=O)Cc1ccccc1	5	8.9%[38.3 µM]	18	1	-1.7	-12	?
O=C(Nc1ccc(F)c(Cl)c1)C1CC(=O)N(Cc2ccccc2)C1 (stereo unspecified)	-2	2.4%	nt	3	-5.0	-31	nt
Cc1oc2ccc(NS(=O)(=O)c3ccc(F)cc3)cc2c1C(=O)O	0	1.9%&-0.2%	-24	-2	-3.7	-5	7%
CCOC(=O)C1(CCCc2ccccc2)CCN(C(=O)[C@@H]2C[C@@H](C)NC(=S)N2)CC1	-1	0.2%	-14	-3	-0.4	-1	-12%
CC(=O)Nc1cccc(NC(=O)CSc2nc(=O)n(Cc3ccccn3)c3c2CCC3)c1	3	3.0%	-18	3	0.4	1	nt
COC(=O)Cn1c(=NC(=O)c2ccc(S(=O)(=O)N3CCc4ccccc4C3)cc2)sc2cc(OC)ccc21	15	0.3%	8	26	-0.6	0	25%
Cc1ccccc1NC(=S)NCCC(c1ccccc1)c1ccccc1	-20	20%	-4	?	-3.4	-4	19%
Cc1ccc(Cn2c(SCC(=O)N/N=C/c3ccc(C)o3)nc3ccccc32)cc1	?	1.7%	16	-19	-2.9	-30	56µM*
COc1cccc(C2/C(=C(/O)c3cnn(-c4ccccc4)c3C)C(=O)C(=O)N2CCN(C)C)c1 (stereo unspecified)	-2	2.3%	-1	-1	-0.7	0	7%

Given field by field: three of the compounds above.
> CCOC(=O)C1(CCCc2ccccc2)CCN(C(=O)[C@@H]2C[C@@H](C)NC(=S)N2)CC1
  Six1-Eya2 inh: -1
  PINK1 modulator: 0.2%
  TRPV1 potentiator: -14
  CtBP-E1A blk: -3
  D2 ag: -0.4
  D2 potentiator: -1
  Sfp PPTase inh: -12%

> CC(=O)Nc1cccc(NC(=O)CSc2nc(=O)n(Cc3ccccn3)c3c2CCC3)c1
  Six1-Eya2 inh: 3
  PINK1 modulator: 3.0%
  TRPV1 potentiator: -18
  CtBP-E1A blk: 3
  D2 ag: 0.4
  D2 potentiator: 1
  Sfp PPTase inh: nt

> COC(=O)Cn1c(=NC(=O)c2ccc(S(=O)(=O)N3CCc4ccccc4C3)cc2)sc2cc(OC)ccc21
  Six1-Eya2 inh: 15
  PINK1 modulator: 0.3%
  TRPV1 potentiator: 8
  CtBP-E1A blk: 26
  D2 ag: -0.6
  D2 potentiator: 0
  Sfp PPTase inh: 25%

Next structures follow:
mol	Six1-Eya2 inh	PINK1 modulator	TRPV1 potentiator	CtBP-E1A blk	D2 ag	D2 potentiator	Sfp PPTase inh
COc1ccc(CNC(=O)[C@H](C)NC(=O)C2CCN(S(=O)(=O)c3ccc(C)cc3)CC2)cc1	0	?	-8	1	-2.8	-6	3%
O=C(Cc1cccs1)Nc1cccnc1	-1	20%[38.3 µM]	2	3	0.0	-7	16%
O=c1c2cc(Br)ccc2[nH]c(=S)n1Cc1cccnc1	14	11%	-20	10	2.5	19	-23%
O=C(Nc1ccn(CCCNC2CCN(Cc3ccccc3)CC2)c(=O)n1)OCc1ccccc1	-4	3.6%	nt	-5	-6.6	-12	nt
Cc1nc(C)c(-c2csc(Nc3ccc(S(N)(=O)=O)cc3)n2)s1	-15	1.5%	0	0	3.5	-8	-10%
Cc1cccc(NC(=O)c2cc(-c3cccnc3)nc3c(C)cccc23)n1	0	0.5%	-17	-4	-2.3	8	6%
O=C(NN=C(c1ccccc1)c1ccccn1)c1ccccc1	-68*	1.0%	nt	6	-7.0	-29	nt
COC(=O)c1ccccc1NC(=O)CN1CCC(n2nnc3cc(C(F)(F)F)ccc32)CC1	2	?	-2	5	-3.6	-14	0%
Nc1ccc2c(c1)C(=O)c1ccccc1-2	-24	3.4%	nt	-10	-1.5	-2	nt
CC(C)NS(=O)(=O)c1ccc(CCC(=O)N2CCOCC2)cc1	11	-2.1%	-3	6	0.8	-2	5%
O=C(CSc1nnnn1-c1ccc2c(c1)OCCO2)N1CCc2ccccc21	-3	2.3%[38.3 µM]	0	-5	0.4	3	1%
COc1cccc(N2CCN(C(=S)Nc3cccc(C)c3)CC2)c1	0	1.2%	-1	-3	-0.4	-10	19%
Brc1cnc2nc(SCc3nc4ccccc4[nH]3)[nH]c2c1	-8	4.0%	6	-4	-3.8	-10	20%
Cc1cccc(-c2nsc(SCC(=O)Nc3ccc4c(c3)OCO4)n2)c1	-8	4.3%	3	-7	-2.8	-22	-24%
COc1ccc(S(=O)(=O)N2CN3CCN(C3)C2)cc1OC	0	2.0%	-10	nt	-3.1	-11	9%
O=C(OCc1c(Cl)cccc1Cl)c1cccnc1	12	1.3%	-3	3	-1.2	1	-4%
COc1cccc(/C=C/C(=O)OC(C)C(=O)Nc2c(C)n(C)n(-c3ccccc3)c2=O)c1 (stereo unspecified)	-10	-1.7%	-3	-26	-3.1	-9	18%
S=C1NC[C@H](c2ccccc2)N1CC1CCCCC1	-5	5.1%	-4	-3	-2.5	0	13%
COc1ccc(C(C(=O)NC2CCCC2)N(Cc2ccccc2)C(=O)CNC(=O)c2ccco2)cc1 (stereo unspecified)	3	-1.9%	-4	-4	0.0	2	16%
CC(NS(=O)(=O)c1ccc(OCC(=O)NCc2cccnc2)cc1)c1ccccc1 (stereo unspecified)	-2	1.0%	5	4	-1.9	-8	21%
Nc1ccccc1OCCOCCOCCOc1ccccc1N	-17	-0.7%	7	-20	0.9	-8	13%
Nc1cc(OC(=O)c2ccc(F)cc2)nn1S(=O)(=O)c1ccc(F)cc1	-22	1.9%	3	-9	-0.2	-16	?
Cc1ccc(C)c(OCCC(=O)Nc2cccc(S(=O)(=O)NC3=NCCCCC3)c2)c1	-7	1.6%	22	-23	0.7	-2	nt
O=C(NCc1ccccc1)NC(=O)c1ccccc1	13	-1.2%	-7	1	-0.2	-11	18%
COCCCn1c(=O)/c(=C\c2ccc(OC(F)F)c(OC)c2)s/c1=C(/C#N)C(N)=O	3	11%	2	nt	-4.8	-10	-1%

Screens as filed in PubChem.
